Screens: PubChem, National Center for Advancing Translational Sciences (NCATS)
VACV mCherry inh: qHTS for Stage-Specific Inhibitors of Vaccinia Orthopoxvirus: mCherry Reporter Primary qHTS | Potency, µM (titrated, usually from 36.5 µM), for the others: at the highest dose activity change, negative = inhibition, actives largely listed as inhibitors | 310,000 tested, 0.63% active | Vaccinia virus mCherry reporter infection, fluorescence; about a quarter of the inactives have no number | AID 720579, 2013; active = well fitted inhibition curve with a large enough effect; inconclusive = small, poorly fitted or top-dose-only effect; inactive = no such curve, though single readings can be large or run the other way; tested in A549 cells; note: nearly all actives have a fitted effect of over 35% in size; inactives centre near -10
VACV Venus inh: qHTS for Stage-Specific Inhibitors of Vaccinia Orthopoxvirus: Venus Reporter Primary qHTS. Potency, µM (series often up to 36.5 µM), without a hit: at the top dose activity change, negative = inhibition, actives largely listed as inhibitors. 330,000 tested, 0.46% active. Vaccinia virus Venus reporter expression, fluorescence; active means well fitted inhibition curve with a large enough effect; inconclusive means small, poorly fitted or top-dose-only effect; inactive means no such curve, though single readings can be large or run the other way; tested in A549 cells; note: nearly all actives have a fitted effect of over 30% in size; inactives centre near -10
The depositor's hits bear a star; i = inactive; ? = inconclusive; / = no result given; & = joins results of further samples; [ ] = remark or other dose. % is set by controls: 0 for no effect and ±100 for the full control effect; potency is the fitted concentration of half-maximal effect.

1	CCOC(=O)COc1c(OC)cc(Cl)cc1C1Nc2ccccc2C(=O)N1c1cccc(C)c1 (stereo not drawn)
2	O=C(Oc1ccc(-c2csnn2)cc1)c1cccs1
3	CCc1noc(C)c1C(=O)NCCN1Cc2cc(OC)ccc2OC(CC)C1 (stereo not drawn)
4	C=CCN(c1ccccc1)S(=O)(=O)c1cccc(C(=O)Nc2ccncc2)c1
5	COc1ccc(C(=O)Nc2ccc3c(c2)CCCN3S(=O)(=O)c2ccc(C)cc2)cc1
6	Cc1cccc(N2CCN(C(=O)CCC(=O)N3CC(C)Oc4ccccc43)CC2)c1C (stereo not drawn)
7	S=C(NCCCN1CCOCC1)Nc1ccc(Cl)cc1
8	O=C1c2ccccc2C(=O)N1CCC#Cc1ccc2cc(CCO)oc(=O)c2c1

assay / compound | 1 | 2 | 3 | 4 | 5 | 6 | 7 | 8
VACV Venus inh | -16% | -5% | 3% | -16% | -27% | ? | -20% | -14%
VACV mCherry inh | -6% | i | -9% | -6% | -24% | ? | -11% | i

9	CCC(=O)N1CC(=O)Nc2ccc(C)cc2C1c1ccc(F)cc1 (stereo not drawn)
10	CC1(C(=O)NS(=O)(=O)c2cccc(F)c2)CCN1C(=O)c1cccc(F)c1 (stereo not drawn)
11	CN(CC(=O)Nc1ccc(F)c(F)c1F)c1ncnc2sccc12
12	CN(C(=O)COC(=O)c1ccc2c(=O)n3c(nc2c1)CCC3)c1ccccc1
13	CC(C)Nc1ncnc2c1ncn2[C@H]1CN(CCN2CCOCC2)C[C@@H](CO)O1
14	Cc1cccc(NC(=O)CNC(=O)CSc2ncccn2)c1C
15	CC(C)C[C@H]1CN([C@@H](Cc2ccc(O)cc2)CN2CCC[C@@H]2CN2C(=S)NC[C@@H]2Cc2ccccc2)C(=S)N1CC1CCCCCC1
16	CCn1c(CCC(=O)Nc2ccccc2F)nnc1SCC(=O)Nc1ccc(OC)cc1

assay / compound | 9 | 10 | 11 | 12 | 13 | 14 | 15 | 16
VACV Venus inh | 2% | 3% | -1% | -6% | 9% | -6% | -30% | -17%
VACV mCherry inh | i | 12% | -13% | -12% | i | -5% | -16% | -22%

17	O=C(COC(=O)COc1ccc(Cl)cc1)Nc1cccnc1Cl
18	Cc1ccc(OCC(=O)Nc2ccc(S(=O)(=O)Nc3cc(C)nc(C)n3)cc2)c(C)c1
19	CCc1ccc(CN2CCN(C(=O)c3cccc(OC)c3OC)CC2)cc1
20	CC(=O)c1cccc(NC(=O)c2ccc3c(c2)OCO3)c1
21	COc1ccc(NC2=CC(=O)CC(C)(C)C2)cc1OC
22	Cc1ccc2c(c1)-c1c(cnn1CC(=O)NC(C)CCc1ccco1)CO2 (stereo not drawn)
23	O=C(NN=Cc1ccc(N(CCCl)CCCl)cc1)c1cc(=O)[nH]c(=O)[nH]1
24	O=C(CSc1nc2c([nH]c3ccccc32)c(=O)n1-c1cccc(C(F)(F)F)c1)N1CCCC1

assay / compound | 17 | 18 | 19 | 20 | 21 | 22 | 23 | 24
VACV Venus inh | -3% | -6% | -30% | -10% | -17% | 9% | -6% | 9%
VACV mCherry inh | -30% | -14% | ? | i | -2% | i | -7% | 12%

25	Cc1ccc(N2C(=O)NC(=O)/C(=C\c3cc(C)n(-c4ccc(C(=O)O)cc4)c3C)C2=O)cc1
26	CN(C)C(=O)N1CCCC(C(=O)NCc2ccccc2)C1 (stereo not drawn)
27	O=C(CSc1nc2ccccc2n1Cc1cccc(C(F)(F)F)c1)NCc1ccccc1
28	CCS(=O)(=O)N1CCN(C(=O)c2ccc(-c3ccccc3)cc2)CC1
29	Cc1ccc(CNC(=O)[C@@H](NC(=O)C2CCN(C(=O)[C@@H]3CCCN3)CC2)C(C)C)cc1
30	O=C(CCC(=O)N1CCN(S(=O)(=O)c2ccccc2)CC1)c1ccc(Br)cc1
31	CNC(=O)OCCSCCS(=O)(=O)c1ccc(Cl)cc1
32	Cc1ccc(Cn2cc(SCC(N)=O)c3ccccc32)cc1

assay / compound | 25 | 26 | 27 | 28 | 29 | 30 | 31 | 32
VACV Venus inh | 19% | -6% | -14% | -27% | -10% | -5% | -11% | -18%
VACV mCherry inh | -10% | -10% | -26% | -6% | -14% | i | -1% | -26%

33	O=C(C1CCCN(S(=O)(=O)c2ccc(Br)cc2)C1)N1CCOCC1 (stereo not drawn)
34	OCc1ccc(-c2cccc3nccn23)cc1
35	CCOC(=O)c1c(C)oc2nc(C)nc(Nc3cccc(OC)c3)c12
36	CCN(CC)CCNC(=O)c1ccc(NC(=O)c2c(F)cccc2Cl)cc1
37	COc1ccc(OC)c(CN2CCCCCC2)c1
38	COc1ccc(S(=O)(=O)NCc2ccc(C(=O)N3CCN(c4ccccn4)CC3)cc2)cc1
39	Cc1ccc(CSc2cn(CC(=O)N3CCCC3)c3ccccc23)cc1
40	CCCCN1C(=O)C(C(=O)OCc2ccccc2)CC2=C1CCCC2=O (stereo not drawn)

assay / compound | 33 | 34 | 35 | 36 | 37 | 38 | 39 | 40
VACV Venus inh | 0% | -2% | -6% | -15% | -6% | -18% | -15% | -10%
VACV mCherry inh | -7% | 3% | -9% | -19% | i | -18% | -16% | -20%

41	Cc1ccc(CNC(=O)C(=O)NCC2OCCN2S(=O)(=O)c2ccc(C)cc2)cc1 (stereo not drawn)
42	Cn1c(C(=O)NC2CC2)cc(=O)n(C)c1=O
43	CCCCCc1c2c(cc(O)c1C(=O)O)OC(=O)c1c(cc(OC)cc1C(=O)CCCC)O2
44	COc1ccc2[nH]c3c(c2c1)CCN1C(=O)C(CC(=O)NCc2ccc(OC)c(OC)c2)C[C@H](C(=O)N(C(C)C)C(C)C)[C@@]31C (stereo partly drawn)
45	COc1ccccc1CNC(=O)C1(c2ccc(Cl)cc2)CC1
46	COc1ccc(CC(=O)Nc2cc(C)c3c(=O)oc4ccccc4c3n2)cc1
47	Cc1c(NC(=O)c2ccc(-c3cccc([N+](=O)[O-])c3)o2)c(=O)n(-c2ccccc2)n1C
48	CC(=O)Oc1ccc2nc(-c3cccs3)oc(=O)c2c1

assay / compound | 41 | 42 | 43 | 44 | 45 | 46 | 47 | 48
VACV Venus inh | -30% | 4% | 0%&11% | ? | -8% | -24% | -1% | -4%
VACV mCherry inh | -7% | -16% | i | ? | -1% | i | i | -10%

49	O=C(Nc1sc2c(c1C(=O)Nc1ccccc1)CCC2)c1ccc(Br)cc1
50	Cc1ccc(S(=O)(=O)c2cn(Cc3ccc(F)cc3)c3cc4c(cc3c2=O)OCO4)cc1
51	O=C(NNC(=O)c1ccncc1)Nc1ccc(N=Nc2ccccc2)cc1
52	Cc1cc(C)nc(SC2CCOC2=O)n1 (stereo not drawn)
53	Cc1[nH]c(-c2ccc3c(c2)OCO3)nc1C(=O)O
54	O=C(Cn1cc(COc2ccc(-n3cccc3)cc2)nn1)NS(=O)(=O)c1ccccc1C(F)(F)F
55	CC(=O)c1cc(C#N)c(Oc2ccccc2)nc1C
56	O=C(NNc1ccccc1)NC(Cc1ccccc1)C(=O)O (stereo not drawn)

assay / compound | 49 | 50 | 51 | 52 | 53 | 54 | 55 | 56
VACV Venus inh | -1% | -2% | -11% | -8% | -6% | 6% | 0% | -8%
VACV mCherry inh | 2% | -8% | -30% | / | 11% | -3% | i | -3%

57	CC(C)CC1C(=O)N(Cc2cn(CCC3OCCCO3)nn2)CCS(=O)(=O)N1Cc1ccc(-c2ccc(F)cc2)cc1 (stereo not drawn)
58	OCCCNC(=S)Nc1ccc(Oc2ccccc2)cc1
59	N/C(=N\NC(=O)c1cccs1)c1cc2ccccc2oc1=O
60	Cc1ccc(C(=O)N(CC#N)CC#N)cc1C
61	CC(Cc1c[nH]c2ccccc12)NC(=O)C1CCCNC1=O (stereo not drawn)
62	COc1ccc(S(=O)(=O)N[C@@H](Cc2ccc(Cl)cc2)C(=O)N2CC[C@@]3(O)CCCC[C@H]3C2)cc1
63	CC1CN(C(=O)c2cccc(S(=O)(=O)N3CCN(c4ccc(F)cc4)CC3)c2)CC(C)O1 (stereo not drawn)
64	CC(=O)Nc1ccccc1-c1nc2ccccc2n(Cc2cccc(Br)c2)c1=O

assay / compound | 57 | 58 | 59 | 60 | 61 | 62 | 63 | 64
VACV Venus inh | -13% | -5% | -14% | -3% | -23% | -17% | -16% | -9%
VACV mCherry inh | -10% | -7% | i | i | -2% | / | -23% | -5%

65	Clc1ccc(Nc2ccc(NCc3ccccc3)nn2)cc1
66	CC(=O)Nc1cc(C(=O)NCc2ccccc2)ccc1Sc1ccc(C)cc1
67	CN(Cc1ccccc1)S(=O)(=O)c1cn(C)cn1
68	O=c1oc2ccccc2cc1-c1cn2cc(Cc3ccccc3F)sc2n1
69	COc1ccc(CC(=O)NNC(=O)COc2ccc3ccccc3c2)cc1
70	CCN(C(=O)C1CCCN(c2nc(-c3ccc(OC)cc3)no2)C1)c1ccccc1F (stereo not drawn)
71	CC1CCN(S(=O)(=O)c2ccc3c(c2)oc(=O)n3CC(=O)NC(C)c2ccccc2)CC1 (stereo not drawn)
72	O=C(NCc1ccncc1)c1ccc(NS(=O)(=O)c2cccc([N+](=O)[O-])c2)cc1

assay / compound | 65 | 66 | 67 | 68 | 69 | 70 | 71 | 72
VACV Venus inh | ? | -7% | -5% | -22% | -12% | ? | -15% | -8%
VACV mCherry inh | -7% | -10% | -14% | ? | -10% | ? | -23% | -11%

73	COc1ccccc1OCCC(=O)OCC(=O)Nc1ccc2c(c1)OCCO2
74	Cc1ccc(NC(=O)COC(=O)Cc2csc(-c3cccc(F)c3)n2)cc1C
75	Cc1ccc(-c2cc(NC(=O)C(C)Oc3ccc(C)c(C)c3)on2)cc1 (stereo not drawn)
76	CCn1c(SCc2nc3scc(-c4ccccc4)c3c(=O)[nH]2)nnc1-c1cccs1
77	COc1ccc(NS(=O)(=O)c2ccc(C(=O)Nc3c(C)n(C)n(-c4ccccc4)c3=O)cc2)cc1
78	Cc1ccc(C(=O)OCC(=O)N2CCOCC2)cc1
79	O=C(NCc1ccccc1Cl)C1CCC(CNc2nc(=S)[nH]c3ccccc23)CC1 (stereo not drawn)
80	NC(=O)C1CCN(C(=O)c2ccc(NC3=NC4CS(=O)(=O)CC4S3)cc2)CC1 (stereo not drawn)

assay / compound | 73 | 74 | 75 | 76 | 77 | 78 | 79 | 80
VACV Venus inh | 4% | -4% | 8% | -25% | ? | 6% | -7% | 2%
VACV mCherry inh | i | i | -9% | -13% | -16% | 15% | i | i

Part of the list above, field by field.
76. CCn1c(SCc2nc3scc(-c4ccccc4)c3c(=O)[nH]2)nnc1-c1cccs1
  VACV Venus inh: -25%; VACV mCherry inh: -13%

77. COc1ccc(NS(=O)(=O)c2ccc(C(=O)Nc3c(C)n(C)n(-c4ccccc4)c3=O)cc2)cc1
  VACV Venus inh: ?; VACV mCherry inh: -16%

78. Cc1ccc(C(=O)OCC(=O)N2CCOCC2)cc1
  VACV Venus inh: 6%; VACV mCherry inh: 15%

79. O=C(NCc1ccccc1Cl)C1CCC(CNc2nc(=S)[nH]c3ccccc23)CC1 (stereo not drawn)
  VACV Venus inh: -7%; VACV mCherry inh: i

Three entries from above, sorted by formula weight, descending:
77	COc1ccc(NS(=O)(=O)c2ccc(C(=O)Nc3c(C)n(C)n(-c4ccccc4)c3=O)cc2)cc1
76	CCn1c(SCc2nc3scc(-c4ccccc4)c3c(=O)[nH]2)nnc1-c1cccs1
79	O=C(NCc1ccccc1Cl)C1CCC(CNc2nc(=S)[nH]c3ccccc23)CC1 (stereo not drawn)

assay / compound | 77 | 76 | 79
VACV Venus inh | ? | -25% | -7%
VACV mCherry inh | -16% | -13% | i

(continued)
81	CCN(CC)c1ccc(CN(C)CCc2ccc(OC)c(OC)c2)cc1
82	CCOC(=O)c1c(C)[nH]c(C(=O)OCC(=O)NC(C)(C)C)c1C
83	CN(C(=O)COC(=O)/C=C/c1ccccc1[N+](=O)[O-])c1ccccc1
84	CC(=O)c1c(C)oc2ccc(N(C(=O)Oc3ccccc3)S(=O)(=O)c3ccc(C(C)(C)C)cc3)cc12
85	O=C(c1cccs1)N1CCN=C1SCc1ccc(Cl)cc1
86	Cc1cn2c(=O)cc(COC(=O)c3cccc(NC(=O)COc4ccccc4Cl)c3)nc2s1
87	O=c1c2c3c(sc2ncn1/N=C/c1ccc(Br)o1)CCCC3

assay / compound | 81 | 82 | 83 | 84 | 85 | 86 | 87
VACV Venus inh | -16% | -11% | -2% | -22% | -12% | -6%[7.34 µM] | -12%
VACV mCherry inh | -2% | -12% | -10% | -29% | -10% | -8%[7.34 µM] | -22%

Another view of 3 compounds above:
nr	smiles	VACV Venus inh	VACV mCherry inh
83	CN(C(=O)COC(=O)/C=C/c1ccccc1[N+](=O)[O-])c1ccccc1	-2%	-10%
84	CC(=O)c1c(C)oc2ccc(N(C(=O)Oc3ccccc3)S(=O)(=O)c3ccc(C(C)(C)C)cc3)cc12	-22%	-29%
85	O=C(c1cccs1)N1CCN=C1SCc1ccc(Cl)cc1	-12%	-10%
